VDR inh: Inhibitors of the vitamin D receptor (VDR): qHTS | Vitamin D3 receptor (Homo sapiens), P11473 | VDR-SRC2-3 peptide fluorescence polarization, 2 h | Potency, µM, without a hit: max response, negative = inhibition, most hits filed as inhibitors | 400,000 compounds, 0.93% hits; active = well fitted inhibition curve with a large enough effect; inconclusive = small, poorly fitted or top-dose-only effect, or another doubt; inactive = no such curve, though single readings can be large or run the other way; note: series mostly up to about 120 µM
Target sequence (P11473 whole entry, looked up): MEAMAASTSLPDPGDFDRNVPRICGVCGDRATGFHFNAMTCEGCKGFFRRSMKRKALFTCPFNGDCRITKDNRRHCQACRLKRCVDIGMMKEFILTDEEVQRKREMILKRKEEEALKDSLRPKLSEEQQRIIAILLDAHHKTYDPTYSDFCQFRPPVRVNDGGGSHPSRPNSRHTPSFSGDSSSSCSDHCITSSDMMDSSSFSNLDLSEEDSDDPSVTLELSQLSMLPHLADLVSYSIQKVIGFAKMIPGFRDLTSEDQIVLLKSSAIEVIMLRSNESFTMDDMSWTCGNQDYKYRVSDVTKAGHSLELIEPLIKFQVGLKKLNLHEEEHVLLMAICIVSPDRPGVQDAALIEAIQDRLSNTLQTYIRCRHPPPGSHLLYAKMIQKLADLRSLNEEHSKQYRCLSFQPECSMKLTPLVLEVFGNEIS
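After 23 nl compound addition and a short centrifugation, plates sat for 2 hours at ambient temperature; polarization of fluorescence then indicated loss of VDR binding to peptide SRC2-3.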
Starred values were filed as active, the others as inactive; ? = inconclusive; & = joins results of further samples. % is set by controls: 0 for no effect and ±100 for the full control effect; potency is the fitted concentration of half-maximal effect.

VDR inh | Molecule
5.2% | CC(C)(C)OC(=O)C[C@@H]1C/C=C\C[C@H](CC(=O)NCCO)C(=O)N[C@@H](c2ccccc2)COC1=O
11.6% | CC(=O)C1=C(O)CCC1=NCCc1ccccc1
5.62µM* | Cc1ccc(/C=C/C(=O)c2ccc([N+](=O)[O-])o2)cc1
-4.1% | Cc1ccc(C(=O)N2CCC(n3nccc3NC(=O)C3CCOC3)CC2)cc1 (configuration not stated)
9.0% | CC(=O)c1c(C)[nH]c(C(=O)CN2CCN(S(=O)(=O)c3ccc(C(C)C)cc3)CC2)c1C
-0.6% | ClCC(CNCc1ccccc1)c1ccccc1 (configuration not stated)
-11.6% | CC(Nc1nc(-c2cccnc2)nc2ccccc12)c1ccc(F)cc1 (configuration not stated)
12.7% | O=C1CN(C(=O)c2ccc(Br)o2)C(c2ccc(F)cc2)c2cc(Cl)ccc2N1 (configuration not stated)
-4.4% | CC1CCc2nc(NC(=O)CN3CCN(c4ccc(F)cc4)CC3)sc2C1 (configuration not stated)
-11.8% | CCOC(=O)C1=CC[C@@H](c2cc3ccc(OC)cc3n2C)N(S(=O)(=O)c2ccc(C)cc2)[C@H]1C(=O)OCC
2.2% | COc1ccc(NC(=O)CN2CCc3ccccc3C2)c([N+](=O)[O-])c1
-2.0% | Cc1ccc(-c2ocnc2C(=O)N2CCN(C(=O)c3cccs3)CC2)cc1
0.3% | O=C(NN=C1CCC(=NNC(=O)c2cccnc2)CC1)c1cccnc1
0.3% | CCCCn1c(N)c(N(CCC(C)C)C(=O)C(C)N2C(=O)c3ccccc3C2=O)c(=O)[nH]c1=O (configuration not stated)
-6.2% | CCOc1ccccc1NC(=O)C1CCCN(S(=O)(=O)c2cccs2)C1 (configuration not stated)
7.7% | Cc1cccc(C(=O)Nc2cccc(C(=O)N3CCOCC3)c2)c1
-10.4% | CCN(CC)CCNC(=O)CS(=O)Cc1nc(-c2ccc(C)cc2)oc1C (configuration not stated)
-5.8% | CCOC(=O)c1cnc2c(ccc3ccccc32)c1Nc1ccc(N(C)C)cc1
-15.8% | CCNCC(=O)N1c2ccccc2CCc2ccc(NC(=O)OCC)cc21
-11.5% | CCOC(=O)N/N=C(\C)c1cccs1
-11.0% | Cc1ccc(CNC(=O)c2ccc(N3CCC4(CC3)CC(c3cccc(Br)c3)=NO4)c(NC(=O)c3ccc(Br)cc3)c2)cc1
8.3% | CCC1CCCCN1C(=O)Cn1c(C(=O)OC)cc2sc(Cl)cc21 (configuration not stated)
15.7% | COc1ccc(CC2(CO)CCN(S(=O)(=O)c3c(C)nn(C)c3Cl)CC2)cc1
-21.1% | COCCN(C(=O)CSc1nnc(-c2ccccc2OC)o1)c1c(N)n(CC(C)C)c(=O)[nH]c1=O
-8.2% | O=C(CN1CCN(c2cccc(Cl)c2)CC1)Nc1ccc(S(=O)(=O)N2CCOCC2)cc1
4.2% | Cc1c(NC(=O)c2cc(-c3cccs3)nc3ccccc23)c(=O)n(-c2ccccc2)n1C
-22.9% | Cc1[nH]c2c(C)cccc2c1CCNC(=O)c1cc2ccccc2oc1=O
-5.4% | Cc1cccc(Oc2ccc(N)cc2)c1
-1.8% | O=C(Nc1ccccc1Cl)c1cc(S(=O)(=O)N2CCOCC2)cs1
12.5% | CCOC(=O)C1=C(COC(=O)CCCOc2ccccc2)NC(=O)NC1C (configuration not stated)

The last 2 records of the part before lead into the next.
VDR inh | Molecule
-1.8% | O=C(Nc1ccccc1Cl)c1cc(S(=O)(=O)N2CCOCC2)cs1
12.5% | CCOC(=O)C1=C(COC(=O)CCCOc2ccccc2)NC(=O)NC1C (configuration not stated)
-6.0% | O=C(NCc1ccco1)c1ccc(Cn2c(=O)c3sccc3n(Cc3ccc(F)cc3)c2=O)cc1
11.2% | CCCCn1c(SCC(=O)Nc2cccc(OC)c2)nc2ccsc2c1=O
2.1% | CN(Cc1ccccc1F)C(=O)c1ccc(NC(=O)CC2SC(N3CCCCC3)=NC2=O)cc1 (configuration not stated)
-15.4% | NC(=S)Nc1ccccc1Br
16.8% | Cc1ccc(C(=O)OCC(=O)Nc2ccc3[nH]c(=O)[nH]c3c2)cc1[N+](=O)[O-]
8.5% | COc1ccc(CNC(=O)CCN2C(=O)c3ccccc3C2=O)cc1OC
8.2% | O=C(Nc1ccc(Br)cc1F)N1CC=C(c2c[nH]c3ccccc23)CC1
-5.2% | O=C(Nc1ccc(F)cc1F)c1ccc(S(=O)(=O)NCc2ccco2)cc1
-0.8% | O=C(O)CCC(=O)c1ccc2c(c1)OCCCO2
-9.0% | O=C(O)CCSc1ccccn1
-11.2% | Nc1ccc(S(=O)(=O)NN=CC=Cc2ccccc2[N+](=O)[O-])cc1
-4.8% | O=C(CCCn1nnc2ccccc2c1=O)N[C@@H](Cc1ccccc1)C(=O)O
-16.8% | CCc1n[nH]c(=S)n1/N=C/c1cccc2ccccc12
-16.6% | COc1ccc2[nH]c3c(c2c1)CCN1C(=O)C(CC(=O)NCc2ccc(OC)c(OC)c2)C[C@H](C(=O)N2CCOCC2)[C@@]31C (some centres not stated)
-3.2% | COc1ccc(CN(C)S(=O)(=O)c2nnc(NC(=O)c3cccc(OC)c3)s2)cc1
3.4% | Cc1ccc(C(C)C)cc1OCC(=O)N/N=C/c1ccc2c(c1)OCCO2
-8.7% | COc1ccc(NC(=O)CCCN2C(=O)CN(C)C2=O)cc1Cl
-5.1% | CCOCC(=O)OCC(=O)NC12CC3CC(CC(C3)C1)C2
-22.7% | COc1ccc(OC)c(-c2cnc(OC(C)(C)C)nc2OC(C)(C)C)c1
-0.5% | CC1(C)Nc2ccccc2C(=O)N1NC(=O)c1ccccc1
1.0% | Cc1cc(NC(=O)COc2ccc(Cl)cc2Cl)n(CCC#N)n1
4.2% | O=C(/C=C/c1ccccc1)OCC(=O)c1c[nH]c2ccccc12
-1.3% | Cc1cc(NCc2ccco2)n2c(nc3ccccc32)c1C#N
-0.7% | COc1ccccc1Nc1ncnc2ccc(C)cc12
5.9% | CC1=C(c2ccc(C)c(C)c2)S(=O)(=O)N=C1N1CCC(C(=O)N2CCC(C)CC2)CC1
3.4% | NC(=O)c1cnn2c(C(F)(F)F)cc(-c3ccc(F)cc3)nc12
4.1% | Cc1c(NC(=O)CSc2nnc(C(C)Oc3ccc(Cl)cc3)n2-c2ccccc2)c(=O)n(-c2ccccc2)n1C (configuration not stated)
15.5% | Cc1oc(-c2ccccc2Cl)nc1CN1CCCCC1CO (configuration not stated)
-3.9% | Brc1cccc(-c2nnn3c2nc(N2CCCCC2)c2ccccc23)c1
-6.3% | CC1CCN(CC(O)COC2CC(C)CC(C)(C)C2)CC1 (configuration not stated)
? | CCOC(=O)C1Nc2c(F)cc(C)cc2C2c3ccccc3CC12 (configuration not stated)
6.7% | Cn1c(C(=O)N2CCCC(C(=O)O)C2)cc2sccc21 (configuration not stated)
50.1µM* | O=C(Oc1ccccc1C(=O)Nc1ccccc1)c1ccc(Br)c([N+](=O)[O-])c1
3.3% | Cn1cc(Br)c(C(=O)NC2CCCCCC2)n1
9.1% | COc1ccc(NC(=O)CSC2=Nc3ccccc3C3=NC(CCC(=O)NC4CCCCC4)C(=O)N23)cc1Cl (configuration not stated)
-4.2% | CCn1c(COc2ccc(C)cc2)nnc1SCc1ccc(C#N)cc1
-9.2% | Cc1c(C)n(C)c2ccc(C(=O)NCCCN3CCCC3)cc12
6.5% | Cc1ccc(C(=O)CSc2nnc(-c3c[nH]c4ccccc34)o2)cc1
1.8% | Cc1ccc(C(=O)OCC(=O)NC2CCCC(C)C2C)cc1S(=O)(=O)N1CCCCC1 (configuration not stated)
4.6% | O=C(NNC(=O)c1ccco1)c1ccc(NS(=O)(=O)c2cccs2)cc1
14.3% | Cc1ccc2[nH]c3c(=O)n(CC(=O)N4CCN(c5cccc(C(F)(F)F)c5)CC4)ncc3c2c1
-16.0% | COc1ccc(-c2nc(-c3ccc(NC(=O)c4ccncc4)cc3)no2)cc1OC
-3.6% | CN(C)CCOC(=O)C1(c2ccccc2)CCCC1
-26.7% | CC(=O)NCCc1ccc(S(=O)(=O)Nc2ccc(C)c(S(=O)(=O)N3CCOCC3)c2)cc1
-5.5% | CCOC(=O)c1ccc(S(=O)(=O)N2CCN(CC(=O)NC(=O)NC(C)(C)C)CC2)cc1
5.3% | CCOc1cc(N2CCOCC2)c(OCC)cc1NC(=O)CN1C(=O)NC2(CCc3ccccc32)C1=O (configuration not stated)
16.4% | Cc1nc(Nc2ccccc2)sc1C(=O)Nc1ccccc1
-17.7% | O=C1C(=NO)CCCc2ccccc21
-0.5% | CCCOc1ccc(/C=N/NC(=O)CN2CCCCC2)cc1OCC
-7.7% | CC(=O)c1ccc(OCC(=O)OCC(=O)NCc2ccco2)cc1
-18.4% | O=C(Cc1ccc(Br)cc1)N1CCN(c2ccccn2)CC1
-2.7% | CC(OC(=O)c1c[nH]c2ccccc12)C(=O)N1CCCC1 (configuration not stated)
4.5% | CN1C(=O)Cc2cc(S(=O)(=O)CCC(=O)Nc3ccc(Cl)c(C(F)(F)F)c3)ccc21
-17.9% | COc1ccc(C(C(=O)NCCC(C)C)N(CCCO)C(=O)c2snc(C(N)=O)c2N)cc1OC (configuration not stated)
-11.0% | COc1ccc(OC)c(NC(=O)COC(=O)COc2ccc(Nc3ccccc3)cc2)c1
6.9% | O=C(Nc1cccnc1)c1ccc(NS(=O)(=O)c2cccc([N+](=O)[O-])c2)cc1
9.8% | Cc1nc(S(=O)(=O)N2CCN(C3c4ccccc4-c4ccccc43)CC2)cn1C
-2.7% | O=C(Nc1ccccc1N1CCOCC1)c1cc2ccccc2o1
0.6% | Cc1ccc(CCNC(=O)c2ccc3c(c2)nc2n3CCOC2)cc1
11.2% | COc1cc(C(c2c(C(=O)O)[nH]c3ccccc23)c2c(C(=O)O)[nH]c3ccccc23)ccc1OCc1ccccc1

More compounds follow.
VDR inh | Molecule
-25.6% | COc1ccc(-c2cc(C(F)(F)F)nc(SCCC(=O)Nc3cccc(OC)c3)n2)cc1
14.7% | O=C(COC(=O)C1COc2ccccc2O1)Nc1ccc(Cl)cc1 (configuration not stated)
-21.7% | COc1ccc(C(=O)CC(=O)C(=O)Nc2cc(OC)ccc2OC)cc1
1.7% | COc1ccc(C(C)=O)cc1CSc1ccc(S(=O)(=O)N2CCOCC2)cn1
-5.6% | COc1cccc(/C=C2\NC(=O)NC2=O)c1O
? | CC(C)CCNC(=O)C1CCN(S(=O)(=O)c2cccc3nsnc23)CC1
-0.7% | O=C(CN1C(=O)c2ccccc2C1=O)Nc1ccc(Cl)cn1
-10.6%&0.6% | Cc1ccc(-n2c(-c3ccco3)nc3c(cnn3-c3ccccc3C)c2=O)cc1
3.5% | CC(C)CNC(=O)c1cccc(NC(=O)C(C)Oc2ccccc2)c1 (configuration not stated)
-26.0% | CC(=O)c1ccc(NC(=O)C(C)N(C)CC(=O)Nc2ccc(Cl)cc2)cc1 (configuration not stated)
29.2% | C=CCN(CC=C)C(=O)c1ccncc1
-10.2% | Cc1ccc(CNS(=O)(=O)c2c(C)[nH]c(C)c2C(=O)N2CCCCC2)o1
-6.1% | CCOc1ccc2nc(NC(=O)CSc3nnc(-c4ccncc4)n3CC3CCCO3)sc2c1 (configuration not stated)
-7.5% | O=C(N/N=C/c1ccncc1)c1ccc(NS(=O)(=O)c2cccs2)cc1
-10.8% | CCOC(=O)N1CCC(N2C(=O)c3ccc(C(=O)Nc4ccc(F)cc4F)cc3C2=O)CC1

Laid out differently: results already given.
Molecule,VDR inh
O=C(O)CCC(=O)c1ccc2c(c1)OCCCO2,-0.8%
O=C(O)CCSc1ccccn1,-9.0%

Next part
VDR inh | Molecule
-2.2% | CN1CCNC(=O)C1CC(=O)NCC1(c2ccccc2)CCCCC1 (configuration not stated)
-11.1% | CCOC(=O)c1cc(=O)n2c(nc3ccccc32)[nH]1
4.7%&8.6% | O=C(c1ccc2c(c1)OCO2)N1CCCCC1
-15.5% | CCOc1cc(-c2nc(-c3ccc(Br)cc3)no2)cc(OCC)c1OCC
2.1% | O=c1[nH]c2ccccc2nc1-c1ccc(Cl)cc1
0.3% | C[C@@]12CCC(=O)C[C@@H]1CC(=O)[C@H]1[C@H]3CCC[C@]3(C)C(=O)C[C@@H]12 (tested in a mixture with another compound)
7.4% | CCOc1ccccc1CN1CCNC(=O)C1CC(=O)NCCCn1cccn1 (configuration not stated)
-1.7% | Cc1ccccc1-c1nc(SCC(=O)NCc2ccc(F)cc2)c2c(=O)n(C)c(=O)n(C)c2n1
0.6% | N#Cc1c(N2CCN(c3ccc([N+](=O)[O-])cc3)CC2)[n+](=O)c2ccc(Cl)cc2n1[O-]
-6.4% | O=C(NC1CC1)c1scc2c1OCCO2
-16.3% | NNC(=O)C(=O)/C=C1\NC2(CCCC2)Cc2ccccc21
-10.2% | CN(C(=O)CN1CCN(c2ccc([N+](=O)[O-])cn2)CC1)c1ccccc1
-14.7% | COc1ccc(/C=C/C(=O)NC2CC3CCC2C3)cc1 (configuration not stated)
-3.1% | O=C(CSc1nnc(-c2ccc(O)cc2)o1)Nc1ccc2c(c1)OCCO2

Some of the entries above, set out differently.
CC(=O)c1ccc(NC(=O)C(C)N(C)CC(=O)Nc2ccc(Cl)cc2)cc1 (configuration not stated)
  VDR inh: -26.0%
CC(=O)C1=C(O)CCC1=NCCc1ccccc1
  VDR inh: 11.6%
Cc1cc(NCc2ccco2)n2c(nc3ccccc32)c1C#N
  VDR inh: -1.3%
O=C(O)CCSc1ccccn1
  VDR inh: -9.0%

Some of the compounds tested, so the mix of outcomes need not match the whole.
